AID504770 – growth inhibitors of E. coli YBA685 in a screen for V. cholerae RctB (chromosome II replication) inhibitors | z-score (no concentration beside the values) | E. coli YBA685 rctB-dependent plasmid, OD600 growth, 3 h; hits give low values | AID 504770 | 0.27% of 130,000 active;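 active = z-score under -2 on both plates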;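 note: wells of about 30 µL received 100 nL stock; score is relative to mean and SD of the test wells; the first replicate is given; strong numbers were not always called active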
CapD inh – inhibitors of Bacillus anthracis CapD enzyme; AID 492967; z-score (concentration not given with the values); purified CapD enzyme, fluorescence intensity read-out; hits give low values; some hits fall short of the stated cut; 0.23% of 140,000 active;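 active = z-score under -4 in either of two replicates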;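 note: stock transfer was 100 nL into about 40 µL; score is relative to mean and spread of the plate; one replicate is shown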
* hit, by the source's call; x = no result given.

Structure	CapD inh	AID504770
S=c1[nH]nc(-c2cccs2)n1C1CCCCC1	6.4	-0.2
Cn1cc(/C=N/NC(=O)COc2ccc(F)cc2)c2ccccc21	-1.1	x
C=CCN1C(=O)CC(N2CCOCC2)C1=O (centres undefined)	-0.015	-0.95
O=C(OC1CCc2ccccc2C1=O)c1ccc(O)cc1 (centres undefined)	x	-0.5
CC(C)(O)c1cc(=N)sc2nc3ccccc3n12	x	0.4
CCOc1ccc(S(=O)(=O)NCCC(=O)OC2CCOC2=O)cc1 (centres undefined)	x	0.05
CC(C)=NNC(=O)c1cccc2cc[nH]c12	0.98	0.05
COc1ccc(F)cc1S(=O)(=O)NCC1COC2(CCCCC2)O1 (centres undefined)	x	-0.65
Cc1ccc(NC(=O)/C(C#N)=N/Nc2ccc(S(=O)(=O)N3CCOCC3)cc2)c(C)c1	x	-0.2
O=C(Cn1c2c(c(-c3ccccc3Cl)cc1=O)CCC2)NCCCN1CCOCC1	34	-0.1
CSc1nnc(-c2csc(S(=O)(=O)Nc3cccc(C(F)(F)F)c3)c2)n1C	0.41	-0.75
O=C(c1ccc(Cl)cc1)c1cnc(-c2cccnc2)nc1-c1ccc(Cl)cc1	-0.29	x
COc1ccc(C(CNC(=O)c2ccccc2)N2CCCC2)cc1 (centres undefined)	-0.7	2.6
O=C(c1ccccc1)c1ccccc1-n1cccc1	1.1	1.4
NC(=O)CSc1ncnc2c1cnn2-c1ccccc1	x	-0.4
N/C(CSc1ccc(Cl)cc1)=N\S(=O)(=O)c1ccc(F)c(Cl)c1	-0.64	x
COCc1cc(OC(=O)N(C)C)nc(-c2ccncc2)n1	-0.1	-0.95
Cc1ccccc1NC(=O)OCc1cccnc1Sc1ccccc1	-0.23	x
O=C(O)CC(NS(=O)(=O)c1cccc2nsnc12)C(=O)O (centres undefined)	x	1.1
COc1ccc(C(=O)Nn2c(-c3cc(OC)c(OC)c(OC)c3)nc3ccccc3c2=O)cc1[N+](=O)[O-]	-0.45	x
COC(=O)c1sccc1N/C=C(\C#N)S(=O)(=O)c1cccs1	0.18	0.35
CN(C)S(=O)(=O)c1ccc(N2CCOCC2)c(C(=O)Nc2ccc3c(c2)OCCO3)c1	x	-0.05
CCCc1ccc(OCC(=O)c2ccc(O)cc2O)cc1	-0.89	0.2
O=C(NC12CC3CC(CC(C3)C1)C2)c1cncc(O)c1	x	-0.8
CCOC(=O)C1=C(O)/C(=C/c2ccc(Cl)c(Cl)c2)SC1=Nc1ccc([N+](=O)[O-])cc1	0.055	x
CCC(=O)Nc1ccc(C(=O)Cn2nc(C(=O)O)c3ccccc3c2=O)cc1	x	0.45
CN(C)c1ccc2c3c(ccc(N(C)C)c13)C(=O)OC2	-0.83	-0.4
O=C1c2ccccc2C(=O)N1CC1c2ccccc2CCN1S(=O)(=O)c1ccc(F)cc1 (centres undefined)	-1.6	x
CCOP(=S)(c1ccccc1)C1(C#N)CCCC1 (centres undefined)	x	0.3
CN(C)c1nc(N2CCOCC2)nc(N2CCOCC2)n1	x	0.3
N#C/C=C(\Sc1nnc(C2CCCCC2)n1N)c1ccccc1	x	0.85
CCCS(=O)(=O)NCCc1cc2c(OC)ccc(OC)c2[nH]c1=O	0.73	-0.25
CN1C(=O)c2c(nc[nH]c2=O)C12CCCC2	x	1
Cc1ccc(NN)cc1C	0.08	-2.1
FC(F)(F)c1nc(NNC(=S)NCC2CCCO2)c2ccccc2n1 (centres undefined)	x	-0.35
COc1nnc(OC)c2ccccc12	0.04	x
Cc1nc2sc(C(=O)Nc3cccc4ccccc34)c(N)c2c(C)c1Cl	0.89	x
CC1=CC(C)C2COC(c3ccc4c(c3)OCO4)C1C2C (centres undefined)	-0.58	-0.25
CCC(=O)Nc1ccc(C(=O)COc2ccc(OC)cc2)cc1	x	0.2
COc1ccc(C(=O)CN2CCN(CCN3C(=O)c4cccc5cccc(c45)C3=O)CC2)cc1	9.3	x
N#Cc1ccc(CSc2ccccn2)c(Cl)c1	0.03	-0.8
O=C(COc1cccc(-n2cnnn2)c1)NC1CCCCC1	x	-1.1
c1ccc2c(-n3cccn3)cccc2c1	x	-1.1
O=C(OCc1cc(=O)n2c3c(sc2n1)CCCC3)C1CSC2(c3ccc(F)cc3)CCC(=O)N12 (centres undefined)	x	-0.05
N#CCSc1ncccn1	0.005	-0.6
CC(C)(C)OC(=O)C(Cc1c[nH]c2ccccc12)NC(=O)OCc1cccc(Cl)c1 (centres undefined)	0.23	x
CCOCC(=O)Nc1cccc(-c2nc3cccnc3s2)c1	x	0.05
CCOc1ccc(N2C(=O)C(C)SC23C(=O)Nc2ccccc23)cc1 (centres undefined)	-0.96	x
O=C(c1ccc2c(c1)N(Cc1ccc(F)cc1)C(=O)/C(=C/c1ccccc1)S2)N1CCCC1	0.63	0.65
Cc1cc2cc(CNC(=O)CC(C)C)ccc2n1C	-0.23	-0.05

Remaining list, next part:
Structure	CapD inh	AID504770
CCCN1CCN(CCCNC(=O)c2cc3c(-c4ccc(OC)c(OC)c4)nn(C)c3s2)CC1	-0.21	-1.1
Cc1ccccc1N1C(=O)c2ccccc2NC1(C)CC(=O)NCc1ccccc1 (centres undefined)	42	-0.35
O=S(=O)(c1cccc(C(F)(F)F)c1)N(C1CCNCC1)C1CC1	-0.26	x
Cn1ccnc1SC(=O)N1c2ccccc2Sc2ccccc21	x	-0.05
C#CCCCCCCCCCCCC(O)CC(O)CO (centres undefined)	x	0.05
Cn1c(=O)c2c(nc3n(Cc4ccccc4)c(-c4ccc(Cl)cc4)cn23)n(C)c1=O	10	x
CCc1cccc(NC(=O)CSCCc2ccccn2)c1	x	-0.6
COc1ccc(C(O)(c2ccccc2)C2CC2)cc1 (centres undefined)	-0.46	-0.4
Cc1cc(C)n(CCCNC(=O)c2ccc(NS(=O)(=O)c3cc(Cl)sc3Cl)cc2)n1	x	-0.5
O=C(Cn1ncc2c3ccccc3n(Cc3ccccc3F)c2c1=O)NCc1cccs1	0.64	-0.65
CNc1nsc(C(=O)c2ccc(OC)cc2)c1N	-2.4	-0.45
O=C(CN1CCN(Cc2ccccc2)C1=O)NCCN1CCOCC1	-0.38	0.4
Cc1ccc(C(=O)c2oc3ccccc3c2NC(=O)C(C)C)cc1	45	-0.75
Cc1ccc(Nc2nc(C)cs2)cc1	x	-0.85
CC(=O)CC(=O)Nc1ccc(Cl)cc1	0.07	x
COc1ccc(Cc2nc(C(=O)Nc3cc(Cl)cc(Cl)c3)cs2)cc1	-0.72	x
CC(=O)NCCC(=O)Nc1cccc(C#N)c1	x	-0.4
S=C(Nc1ccc(Cl)c(Cl)c1)NC1CCCC1	0.84	-0.35
CN1CCN(C(=O)c2ccc3c(c2)N(Cc2ccccc2F)C(=O)c2ccccc2S3=O)CC1 (centres undefined)	-0.64	0.3
Cc1ccc(NC(=O)c2cc(-c3cccs3)on2)cc1	0.87	0.15
COC(=O)c1ccc(N2C(=O)/C(=C/c3ccc(Cl)cc3)C=C2c2ccccc2)cc1	0.68	x
Cc1ccc(NC(=O)CSC(C)C(=O)N2CCC(C)CC2)cc1 (centres undefined)	x	-0.35
CCCCn1c(=O)n(CC(=O)Nc2ccccc2F)c(=O)c2c1ncn2Cc1ccco1	x	0.7
Cc1ccc(C)n1-c1ccc(C(=O)N(C)Cc2nc3ccccc3c(=O)[nH]2)cc1	x	1.1
Cn1cccc1C1CCCN1CC(=O)Nc1ccccc1C(=O)Nc1ccccc1 (centres undefined)	x	-0.3
CC(C)(Oc1ccc(Cl)cc1)C(=O)NC1CCCCNC1=O (centres undefined)	-0.64	0.35
O=C1NC(=O)C(=Cc2ccc(Cl)cc2)C(=O)N1	0.87	x
CCOC(=O)c1nn(-c2ccc(OCC)cc2)cc1O	4.5	0
CN(Cc1cccc(F)c1)C(=O)C1CC(=O)N(Cc2ccco2)C1 (centres undefined)	x	-0.8
COc1ccc(/C=N/NC(=O)c2ccncc2)cc1	-2.2	x
CCn1c(=NC(=O)CSCC(=O)NC2CCCCC2)sc2cc(C(=O)OC)ccc21	8.1	1.6
O=C(CCc1ccccc1)NC1CCS(=O)(=O)C1 (centres undefined)	x	0.35
O=[N+]([O-])c1c(NCCCO)cc(NC2CCCCCC2)c2nonc12	-2.4	x
Cc1ccc(S(=O)(=O)CC(=O)NC2CC2)cc1	-0.17	-0.65
CCCCC1CCC(C2CCC(C(=O)O)CC2)CC1 (centres undefined)	0.055	-0.45
COc1ccc(C2(c3ccccc3)C=Cc3c(ccc4ccccc34)O2)cc1 (centres undefined)	0.96	x
N#CCSc1nnc(-c2ccc(Cl)cc2)n1Cc1ccco1	x	0.1
CNC(=S)N1CCSC1=Nc1ccccc1C	x	0.55
O=C(O)CC1(CC(=O)Nc2ccc(I)cc2F)CCCCC1	0.035	-0.15
O=S(=O)(Cc1ccc(C(F)(F)F)cc1)c1ccc(Cl)cc1	9.8	-0.25
CSc1nnc(NC(=O)/C=C/c2cccc(F)c2)s1	0.66	-0.85
COc1cc(Br)c(C2C(C(=O)N3CCOCC3)=C(C)NC3=C2C(=O)CCC3)cc1OC (centres undefined)	24	x
Cc1cc(C)c(NC(=O)COC(=O)C2CCCCC2)c(C)c1	x	-0.4
COc1ccc(C(=O)NCCc2nnc3ccc(SCC(=O)Nc4ccc(C)cc4C)nn23)cc1	0.02	0.15
O=C(O)CCC(=O)Nc1ccc(-c2csc(-c3ccccc3)n2)cc1	5.3	-0.45
CN(C)/C=C1/N=C(c2ccccc2)OC1=O	-4	1.2
Cc1ccc(CN(C)C(=O)c2ccc(Oc3ccccc3)cc2)o1	x	-0.1
COc1cccc(N2C(=O)c3ccccc3C2C(=O)NC2CCCC2)c1 (centres undefined)	-0.98	0.2
CC(C(=O)NC1CCCCCC1)C1Sc2ccccc2N(Cc2ccc(F)cc2)C1=O (centres undefined)	0.44	0.25
O=[N+]([O-])c1cc(CN2CCOCC2)ccc1Sc1ccc(Cl)cc1	-0.38	x

Copied from the listing (2 entries):
Structure	CapD inh	AID504770
S=c1[nH]nc(-c2cccs2)n1C1CCCCC1	6.4	-0.2
Cn1cc(/C=N/NC(=O)COc2ccc(F)cc2)c2ccccc21	-1.1	x

Next structures:
Structure	CapD inh	AID504770
CCN(CC)C(=O)c1sc2nc(C)nc(N3CCN(c4ccccn4)CC3)c2c1C	-0.11	x
Nc1cc(C(=O)Nc2ccccc2F)ccc1N1CC2CC(C1)c1cccc(=O)n1C2 (centres undefined)	7.9	0.3
O=C(CCS(=O)(=O)c1nc(-c2ccc3c(c2)OCO3)cc(C(F)(F)F)n1)Nc1ccc(OC(F)(F)F)cc1	0.6	2.2
Cc1onc(-c2ccccc2Cl)c1C(=O)N(CCC#N)C1CCCCC1	-0.07	x
NCCCc1nc2ccccc2[nH]1	x	-0.55
Cc1[nH]c(=O)[nH]c(=O)c1S(=O)(=O)NCc1ccccn1	0.07	-0.3
CC1CN(c2oc(-c3ccc(Cl)cc3)nc2[P+](c2ccccc2)(c2ccccc2)c2ccccc2)CC(C)O1 (centres undefined)	0.31	x
COc1ccc(N2CCN(C(=O)Cc3nn(C)c(=O)c4ccccc34)CC2)cc1	12	-0.15
CC(C)(C)c1cc(Cl)c(O)c(N=Cc2ccccc2O)c1	-0.46	-0.8
COC(=O)C1C(=O)C2=C(CC1C)NC(=O)CC2c1cccc(OC)c1 (centres undefined)	-1.3	1.1
Cc1ccc(-c2ccnc(-c3ccc(O)cc3)n2)cc1	0.35	2
COC(=O)c1scc(S(=O)(=O)C(C)C)c1-n1cccc1	-0.14	-0.5
CC(NC(=O)Nc1cccnc1)N1C(=O)C2C3C=CC(C3)C2C1=O (centres undefined)	1.4	0
N#Cc1c(-n2cccc2)sc2c1CCCC2	-0.025	0.6
CC(C)C(=O)Nc1nc(-c2ccccc2)c(-c2ccccc2)s1	1.6	-0.35
CCCCN(C)S(=O)(=O)c1ccc2c(c1)CCN2C(=O)CC	-0.94	-0.15
C=CCN(c1ccccc1)S(=O)(=O)c1ccc2[nH]cc(C(=O)N3CCC4(CC3)OCCO4)c(=O)c2c1	-0.79	x

Single records (already shown). Values in the order: CapD inh	AID504770
Record of CCC(=O)Nc1ccc(C(=O)Cn2nc(C(=O)O)c3ccccc3c2=O)cc1 = x	0.45
Record of CCCc1ccc(OCC(=O)c2ccc(O)cc2O)cc1 = -0.89	0.2

6 compounds already listed, ordered by heavy-atom count, rising.
Structure	CapD inh	AID504770
COC(=O)c1scc(S(=O)(=O)C(C)C)c1-n1cccc1	-0.14	-0.5
CC(C)(C)c1cc(Cl)c(O)c(N=Cc2ccccc2O)c1	-0.46	-0.8
CCN(CC)C(=O)c1sc2nc(C)nc(N3CCN(c4ccccn4)CC3)c2c1C	-0.11	x
Nc1cc(C(=O)Nc2ccccc2F)ccc1N1CC2CC(C1)c1cccc(=O)n1C2 (centres undefined)	7.9	0.3
C=CCN(c1ccccc1)S(=O)(=O)c1ccc2[nH]cc(C(=O)N3CCC4(CC3)OCCO4)c(=O)c2c1	-0.79	x
O=C(CCS(=O)(=O)c1nc(-c2ccc3c(c2)OCO3)cc(C(F)(F)F)n1)Nc1ccc(OC(F)(F)F)cc1	0.6	2.2
